Source: PubChem BioAssay
FPR binding: FPR binders displacing fluorescent formyl peptide, primary screen, U937-FPR cells, fMLFK-FITC, flow cytometry (AID 362). 4,300 compounds, 1% hits. U937-FPR cells, fMLFK-FITC displacement, flow cytometry; hits give high values; test concentration not given here; most inactive calls were filed without a number and no value below 0 was filed. inhibition, %;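 active means inhibition of labelled peptide binding to the formyl peptide receptor of at least 65%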;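 further: plate controls were buffer control wells for no effect and unlabeled fMLFF blocking peptide for full effect; higher means less cell fluorescence so more probe displaced; part of the set was picked by virtual screening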
The depositor's hits bear a star; i = inactive.

O=C(O)c1ccc([N+](=O)[O-])cc1N1C(=O)C2C3CCC(C3)C2C1=O (stereo not given)
  FPR binding = i

CCSCCOC(=O)C1=C(C)NC2=C(C(=O)C(C(=O)OC)C(C)C2)C1c1cccc(Oc2ccccc2)c1 (stereo not given)
  FPR binding = 2.4

N#CCCN(C1CCCCC1)S(=O)(=O)c1ccc(-c2ccc([N+](=O)[O-])cc2)cc1
  FPR binding = i

CC(=O)N1CCc2cc(S(=O)(=O)NC(C(=O)Nc3cc(C)cc(C)c3)C(C)C)ccc21 (stereo not given)
  FPR binding = i

COc1ccc(C2=NC(C3CCCCC3)NC(c3ccccc3O)C2)cc1OC (stereo not given)
  FPR binding = 10.4

COC(=O)C1C(=O)C2=C(CC1C)NC(C)=C(C(=O)OC1CCCCCC1)C2c1ccc(C)o1 (stereo not given)
  FPR binding = 0.5

COC(=O)C(NC(C)=O)(Nc1sc2c(c1C#N)CCCCC2)C(F)(F)F (stereo not given)
  FPR binding = i

Cc1[nH]nc2c1C(C1CC=CCC1)C(C#N)=C(N)O2 (stereo not given)
  FPR binding = i

COc1ccccc1N1CCN(S(=O)(=O)c2ccc(F)c(C(=O)Nc3ccccc3C(F)(F)F)c2)CC1
  FPR binding = i

CCOC(=O)C1CCC(CN(Cc2ccccc2)S(=O)(=O)c2cccc([N+](=O)[O-])c2)CC1 (stereo not given)
  FPR binding = 1.7

CCCCn1c(SCC(=O)NCCc2ccc(OC)c(OC)c2)nc2ccc(N3CCOCC3)cc2c1=O
  FPR binding = i

CCCC1CCC(C2=N/C(=C\c3cc(OC)ccc3OC)C(=O)O2)CC1 (stereo not given)
  FPR binding = i

Cc1sc2ncn(CC(=O)Nc3ccc(F)cc3Cl)c(=O)c2c1S(=O)(=O)N1CCC(C)CC1
  FPR binding = i

CCOC(=O)C1=C(C)C2C3C(=O)N(c4cccc5ccccc45)C(=O)C3C1(C)C1C(=O)N(c3cccc4ccccc34)C(=O)C21 (stereo not given)
  FPR binding = 13.4

COc1cc(C2C3=C(CC(C)(C)CC3=O)OC3=C2C(=O)CC(C)(C)C3)ccc1OC(=O)c1ccc(C(C)(C)C)cc1
  FPR binding = 0.6

COCCOC(=O)C1=C(C)NC2=C(C(=O)C(C(=O)OC)C(C)C2)C1c1ccc(Cl)c([N+](=O)[O-])c1 (stereo not given)
  FPR binding = 15.3

COc1cccc2c1OC13CCCCC1C2/C(=C(O)\C=C\c1ccc(OC)c(OC)c1OC)C(=O)N3C (stereo not given)
  FPR binding = i

CCOC(=O)CSc1nc2ccccc2c(=O)n1CC1CCC(C(=O)NCc2ccco2)CC1 (stereo not given)
  FPR binding = i

CCN(CC)Cc1c(O)ccc2c(=O)c(-c3ccccc3OC)c(C(F)(F)F)oc12
  FPR binding = 12.7

COc1ccc(C2(CNC(C)=O)CCOCC2)cc1OC
  FPR binding = 7.8

CCCCNC(=O)c1cn(CC(C)C)c(=O)c2c1c1ccccc1n2C
  FPR binding = i

COc1ccc(CCNC(=O)CSc2nc3ccsc3c(=O)n2CC2CCC(C(=O)O)CC2)cc1OC (stereo not given)
  FPR binding = i

COc1cccc(N2CCN(C(=O)C3CCC(CNS(=O)(=O)c4cccs4)CC3)CC2)c1 (stereo not given)
  FPR binding = i

CCOCCCNC(=O)C1CCN(S(=O)(=O)N2CCC(C)CC2)CC1
  FPR binding = i

COc1ccc(C)cc1NC(=O)C1CCC(CNS(=O)(=O)c2ccc(Br)s2)CC1 (stereo not given)
  FPR binding = 19.9

In the list so far, four contain fluorine:
COC(=O)C(NC(C)=O)(Nc1sc2c(c1C#N)CCCCC2)C(F)(F)F (stereo not given)
  FPR binding = i

COc1ccccc1N1CCN(S(=O)(=O)c2ccc(F)c(C(=O)Nc3ccccc3C(F)(F)F)c2)CC1
  FPR binding = i

Cc1sc2ncn(CC(=O)Nc3ccc(F)cc3Cl)c(=O)c2c1S(=O)(=O)N1CCC(C)CC1
  FPR binding = i

CCN(CC)Cc1c(O)ccc2c(=O)c(-c3ccccc3OC)c(C(F)(F)F)oc12
  FPR binding = 12.7

Part of the list above, with bars between the fields:
Molecule | FPR binding
COC(=O)C(NC(C)=O)(Nc1sc2c(c1C#N)CCCCC2)C(F)(F)F (stereo not given) | i
Cc1[nH]nc2c1C(C1CC=CCC1)C(C#N)=C(N)O2 (stereo not given) | i
COc1ccccc1N1CCN(S(=O)(=O)c2ccc(F)c(C(=O)Nc3ccccc3C(F)(F)F)c2)CC1 | i

The results go on:
COc1cccc(CSc2ccc(S(=O)(=O)N3CCN(C)CC3)cc2C(=O)N2CCC(C)CC2)c1OC
  FPR binding = 7.5

CCOC(=O)Oc1ccc2c(=O)c(Oc3cccc(C)c3)c(C(F)(F)F)oc2c1
  FPR binding = i

CC1=C(C(=O)OC2CCCCCCC2)C(c2cccc([N+](=O)[O-])c2)NC(=O)N1 (stereo not given)
  FPR binding = 2.4

O=C1C2C3C=CC(C2C(=O)N1c1cccc(O)c1)C1C2C(=O)N(c4cccc(O)c4)C(=O)C2C31 (stereo not given)
  FPR binding = i

CCCCN(CC)C(=O)c1sc2ncnc(N3CCN(c4ccc(OC)cc4)CC3)c2c1C
  FPR binding = i

CCN(CC)CC(=O)N1CCCc2c1c(=O)oc1ccc(OC(C)=O)cc21
  FPR binding = i

CCCOc1ccc(C2NC(=O)NC(C)=C2C(=O)OC2CCCCC2)cc1 (stereo not given)
  FPR binding = i

CCOc1ccc(C2C(C(=O)OCCSCC)=C(C)NC3=C2C(=O)C(C(=O)OC)C(C)C3)cc1 (stereo not given)
  FPR binding = i

CCOC(=O)C1CCCN(C(=O)c2cn(CC(C)C)c(=O)c3cc(OC)c(OC)cc23)C1 (stereo not given)
  FPR binding = i

CCOC(=O)c1cc2c(=O)n3ccccc3nc2n(CC(C)C)c1=NC(=O)c1ccccc1C(F)(F)F
  FPR binding = 0.3

Cc1sc2ncn(CC(=O)NCCCN3CCCCCC3)c(=O)c2c1S(=O)(=O)N1CCC(C)CC1
  FPR binding = i

N#Cc1c2c(c(N3CCN(CCO)CC3)n3c1nc1ccccc13)CCC2
  FPR binding = i

CCOC(=O)C1CCN(S(=O)(=O)c2c(C(C)C)cc(C(C)C)cc2C(C)C)CC1
  FPR binding = i

CC1(C)CC(n2c(SCC#N)nc3c(c2=O)C2(CCCCC2)Cc2ccccc2-3)CCO1 (stereo not given)
  FPR binding = i

O=C(O)C1CCC(CNC(=O)C2CCCN(S(=O)(=O)c3cccc4nsnc34)C2)CC1 (stereo not given)
  FPR binding = i

CC1=C(C(=O)OCc2ccccc2)C(c2ccccc2C(F)(F)F)CC(=O)N1 (stereo not given)
  FPR binding = i

CCOCCn1c(CN2CC(C)CC(C)C2)nc2c1c(=O)n(C)c(=O)n2C (stereo not given)
  FPR binding = i

CCCOC(=O)C1=C(C)NC2=C(C(=O)C(C(=O)OC)C(C)C2)C1c1cccc([N+](=O)[O-])c1 (stereo not given)
  FPR binding = 15.8

CCCSc1nc2c(c(=O)n1C1CCOC(C)(C)C1)C1(CCCCC1)Cc1ccccc1-2 (stereo not given)
  FPR binding = i

COCCOC(=O)C1=C(C)NC2=C(C(=O)C(C(=O)OC)C(C)C2)C1c1cccc(OC)c1 (stereo not given)
  FPR binding = 28.5

CCSc1nnc(NC(=O)C2C3CCC(C3)C2C(=O)O)s1 (stereo not given)
  FPR binding = i

CCOC(=O)c1cc2c(=O)n3ccccc3nc2n(CC(C)C)c1=NC(=O)COc1ccccc1
  FPR binding = i

CCCC1N=C(c2cccc(OC)c2)CC(c2cc(Br)ccc2O)N1 (stereo not given)
  FPR binding = 3.1

CC(=O)Nc1nc2c(s1)C(=O)NCC(C)(C)C2
  FPR binding = 5.3

CC1(C)CC(=O)C2=C(C1)N(c1ncn[nH]1)C(N)=C(C#N)C2c1cccc([N+](=O)[O-])c1 (stereo not given)
  FPR binding = i

O=C1C2C3C=CC(C2C(=O)N1c1cccnc1)C1C(=O)N(c2cccnc2)C(=O)C31 (stereo not given)
  FPR binding = i

CCC(C)C(Nc1ncnc2sc3c(c12)CCC3)C(=O)O (stereo not given)
  FPR binding = 0.8

O=C(O)C12CC3CC(C(=O)O)(C1)CC(C(=O)O)(C3)C2
  FPR binding = i

O=C(C1CCCN(S(=O)(=O)c2cccc3nonc23)C1)N1CCCCC1 (stereo not given)
  FPR binding = 15.8

CC1=C(C(=O)OC2CCCC2)C(c2cc3c(cc2[N+](=O)[O-])OCO3)C2=C(CC(C)(C)CC2=O)N1 (stereo not given)
  FPR binding = 18.4

COc1cc2c(cc1OC)C1C(C(=O)N3CCCC(C)C3)c3ccccc3C(=O)N1CC2 (stereo not given)
  FPR binding = i

COc1cc(C2NC(=O)NC(C)=C2C(=O)OCC(C)C)ccc1O (stereo not given)
  FPR binding = i

O=C(c1ccccn1)N(CC1CCCO1)C1(C(=O)NC2CCCCC2)CCCCC1 (stereo not given)
  FPR binding = i

COc1ccc(C2(CNC(=O)c3cc(OC)c(OC)c(OC)c3)CCCC2)cc1OC
  FPR binding = i

CC(C)CC(Nc1ncnc2ccc(Br)cc12)C(=O)O (stereo not given)
  FPR binding = 35.3

CC(=O)N1CCCc2cc(S(=O)(=O)NC(C(=O)Nc3ccc(Cl)cc3)C(C)C)ccc21 (stereo not given)
  FPR binding = i

CCN1CCN(Cc2c(O)ccc3c(=O)c(Oc4cccc(C)c4)c(C(F)(F)F)oc23)CC1
  FPR binding = i

COC(=O)C(NS(=O)(=O)c1ccc(NC(C)=O)cc1)C(C)C (stereo not given)
  FPR binding = i

CC(C)CCn1c(N2CCOCC2)nc2c1c(=O)[nH]c(=O)n2C
  FPR binding = i

CCCCCOC(=O)c1c(C)oc2ccc(NS(=O)(=O)c3ccc(OC)c([N+](=O)[O-])c3)cc12
  FPR binding = 24.4

CN(C)CCCNc1c2c(c(C#N)c3nc4ccccc4n13)CCCC2
  FPR binding = i

CC(C)C(C(=O)O)n1c(O)c(C2=c3cc(Br)ccc3=NC2=O)sc1=S (stereo not given)
  FPR binding = 95.3*

COC(=O)C1=C(\N2CCOCC2)CCCC/C=C\1C(=O)OC
  FPR binding = i

COc1ccc(C2(CNC(=O)C3(c4ccccc4)CCCC3)CCCC2)cc1OC
  FPR binding = i

CCCCNS(=O)(=O)c1cc(S(=O)(=O)NCCCC)c2cccc3c2c1NC3=O
  FPR binding = i

CCCC1=C(C(=O)OCC)C(c2ccccc2Cl)n2ncnc2N1 (stereo not given)
  FPR binding = i

CCCCCn1c(SCC(=O)OCC)nc2cc(C(=O)N3CCN(c4ccccc4)CC3)ccc2c1=O
  FPR binding = i

COCCOC(=O)C1=C(C)NC2=C(C(=O)C(C(=O)OC)C(C)C2)C1c1ccc(C)c([N+](=O)[O-])c1 (stereo not given)
  FPR binding = 32.6

O=C(O)CCCCCn1c(SCC(=O)NCCC2=CCCCC2)nc2ccsc2c1=O
  FPR binding = i

O=c1c(Oc2ccccc2)c(C(F)(F)F)oc2cc(O)ccc12
  FPR binding = 46.2

CCN(CC)Cc1cc(C2C3=C(CC(C)(C)CC3=O)OC3=C2C(=O)CC(C)(C)C3)ccc1OC
  FPR binding = i

COC(=O)C1C(=O)C2=C(CC1C)NC(C)=C(C(=O)OC1CCCC1)C2c1ccc(C)c([N+](=O)[O-])c1 (stereo not given)
  FPR binding = 20.0

CC1=C(C(=O)OCC(C)C)C(c2ccc(O)cc2)C2=C(CC(c3ccc(Cl)cc3)CC2=O)N1 (stereo not given)
  FPR binding = 17.5

CCC1(C)CC(CC(=O)O)(c2ccc(OC)cc2)CCO1 (stereo not given)
  FPR binding = i

CCC(C)C(NC(=O)OC(C)(C)C)C(=O)N1CCCC1C(N)=O (stereo not given)
  FPR binding = i

CC(CCC(=O)O)C1CC[C@H]2C3CCC4CC(=O)CCC4(C)[C@H]3CC(=O)C12C (stereo not given in full)
  FPR binding = i

CN(C(=O)c1ccc2c(c1)OCO2)C1(C(=O)NC2CCCCC2)CCCCC1
  FPR binding = i

CCCOc1ccc(C2NC(=O)NC(C)=C2C(=O)OCC(F)(F)F)cc1OC (stereo not given)
  FPR binding = i

CCCCOc1ccccc1C1C(C(=O)OC(C)CC)=C(C)NC2=C1C(=O)C(C(=O)OC)C(C)C2 (stereo not given)
  FPR binding = 1.5

COC(=O)C1=C(N)OC2=C(C(=O)CC(C)(C)C2)C1c1ccc(Cl)cc1 (stereo not given)
  FPR binding = 16.5

COc1ccc(C2C3=C(CC(C)(C)CC3=O)OC3=C2C(=O)CC(C)(C)C3)cc1COc1ccccc1F
  FPR binding = 3.8

N#Cc1c2c(c(NCCCN3CCOCC3)n3c1nc1ccccc13)CCCC2
  FPR binding = 17.0

CCCCc1c(C)c(C#N)c2nc3ccccc3n2c1-n1ccnc1C
  FPR binding = 5.7

N#CCCN(C1CCCCC1)S(=O)(=O)c1ccc(Cl)cc1
  FPR binding = i

O=c1oc2cc(O)c(Cl)cc2c2c1CCCC2
  FPR binding = i

CCCOc1ccc(C2C3=C(CC(C)(C)CC3=O)N(CC(=O)O)C3=C2C(=O)CC(C)(C)C3)cc1OCC
  FPR binding = i

COCCNC(=O)C1CCC(CNS(=O)(=O)c2ccc(Cl)cc2)CC1 (stereo not given)
  FPR binding = i

COc1cccc(C2C(C#N)=C(N)N(c3ncn[nH]3)C3=C2C(=O)CC(C)(C)C3)c1OC (stereo not given)
  FPR binding = 4.9

O=C(Nc1ccc(Cc2ccncc2)cc1)C1CCC(N2C(=O)C3C4C=CC(C4)C3C2=O)CC1 (stereo not given)
  FPR binding = i

CCC(C)NC(=O)CSc1nc2ccccc2c(=O)n1CC1CCC(C(=O)NCC2CCCO2)CC1 (stereo not given)
  FPR binding = i

CCOC(=O)C1=C(C)NC2=C(C(=O)C(C(=O)OC)C(C)C2)C1c1cccc(OC)c1OC (stereo not given)
  FPR binding = i

Cc1ccccc1CN(CC1CCC(C(=O)NO)CC1)S(=O)(=O)c1ccc(C(C)(C)C)cc1 (stereo not given)
  FPR binding = 6.9

COc1ccc(C2(CNC(=O)c3ccc(F)cc3)CCCC2)cc1OC
  FPR binding = i

CCOc1cc2oc(C(F)(F)F)c(Oc3ccccc3)c(=O)c2cc1CC
  FPR binding = 27.9

O=C(CSc1c2c(nc3ccccc13)CCCC2)NCCN1CCOCC1
  FPR binding = i

O=C1c2cccc3cccc(c23)C(=O)N1CCCN(C(=O)C12CC3CC(CC(C3)C1)C2)c1cccc(F)c1
  FPR binding = i

A portion of the library (hit frequency here may not be typical).
